Assay outcomes deposited in PubChem by National Center for Advancing Translational Sciences (NCATS).
HSD17B inhib: inhibitors of human HSD17B10 dehydrogenase; AID 893; Potency, µM (doses to about 57.1 µM), for the others: top-dose activity change, negative = inhibition, actives largely listed as inhibitors; recombinant HSD17B10, NADH fluorescence kinetic; many of its hits are not listed in these tables; Q99714; 75,000 compounds, 7.6% hits; active = well fitted inhibition curve with a large enough effect; inconclusive = small, poorly fitted or top-dose-only effect; inactive = no such curve, though single readings can be large or run the other way;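 note: the protocol describes HADH2 (HSD17B10) and not the HSD17B4 of the title; nearly all actives have a fitted effect of over 70% in size; most hits overshoot -100% by far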
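His-tagged E. coli-expressed HADH2 at 20 nM in 100 mM Tris-HCl pH 9.0 with 0.01 % Tween-20, preincubated 15 min with compound at room temperature. Reaction with 1 mM NAD+ and 90 uM beta-hydroxybutyryl coenzyme A; NADH fluorescence (360/450 nm) read kinetically over 4 min, last minus first point.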
The depositor's hits bear a star; ? = inconclusive; [ ] = another dose, or the depositor's remark. % is set by controls: 0 for no effect and ±100 for the full control effect; potency is the fitted concentration of half-maximal effect. These rows are one share of the data; rates above refer to the full screens.

Structure	HSD17B inhib
CCOc1ccccc1N(CC(=O)NC(C)(C)C)C(=O)c1ccc(CN2CCOCC2)o1	-1.1%
COc1ccc(C(=O)OCc2cc3cccc(C)c3[nH]c2=O)cc1	-3.2%
COCC(=O)N1CCC2(CC1)CN(C(=O)Nc1cccc(F)c1)C2	1.9%
Cc1cnc(CNc2ncnc3ccc(-c4ccc5c(c4)OCO5)cc23)cn1	-5.2%
Clc1cccc(NCc2nnc(SCc3ccccc3)o2)c1	-14.4%
CCCCOC(=O)c1ccc(OC(=O)c2cccnc2)cc1	-2.5%
CCCCCn1c(CNC(=O)CC)nc2ccccc21	11.1%
O=C(NC1=NCCS1)c1csc2ccccc12	-9.1%
COCC(=O)N1CCC2(CCN(Cc3cc(C(F)(F)F)cc(C(F)(F)F)c3)CC2)CC1	6.0%
Cc1nc2sc(C(c3cccs3)N3CCN(Cc4ccccc4)CC3)c(O)n2n1 (stereo not drawn)	17.8%

Structure	HSD17B inhib
N/C(=N\O)C1COc2ccccc2O1 (stereo not drawn)	1.7%
CCCCNC(=O)CN(C1CCCCC1)S(C)(=O)=O	3.1%
O=C(COc1ccccc1Cl)Nn1cnnc1	4.1%
Cc1cc(NC(=O)c2cc(C3CC3)on2)n(-c2ccccc2)n1	-6.9%
CN(C(=O)c1cccs1)c1ccccc1C(=O)O	25.1µM*
COC(=O)c1cccc(NC(=O)C2COc3ccccc3O2)c1C (stereo not drawn)	14.1%
COc1ccc(C2/C(=C(/O)c3ccc(C)cc3)C(=O)C(=O)N2C)cc1 (stereo not drawn)	0.0%
O=C(CSc1ccc2nnc(-c3cccnc3)n2n1)N1CCOCC1	?
CC1(C(=O)NCCN2CCOCC2)C=CC2(CCCCC2)N1C(=O)c1ccccc1 (stereo not drawn)	6.2%
Nc1ccc2oc(-c3cccc4ccccc34)nc2c1	?

Structure	HSD17B inhib
COc1cccc2[nH]c3c(N4CCN(Cc5ccc6c(c5)OCO6)CC4)ncnc3c12	25.1µM*
O=C(NCc1nnc(SCC(=O)N2CCCC2)o1)c1ccccc1F	6.3%
CCCc1cc(C(=O)NCc2ccc(OC)cc2)no1	6.1%
Cn1c(=O)c2c(-c3ccc(C(C)(C)C)cc3)n(N3CCOCC3)cc2n(C)c1=O	2.6%
O=C(NCCc1ccccc1)C1CCCN(S(=O)(=O)c2cccs2)C1 (stereo not drawn)	-7.9%
O=C(Nc1ccc(N2C(=O)C3C4C=CC(C4)C3C2=O)cc1)Nc1nncs1 (stereo not drawn)	1.4%
CC1=C/C(=C(/c2ccc(O)c(C)c2)c2ccccc2C(=O)O)C=CC1=O	2.2%[11.4 µM]
O=c1cc(-c2ccc(Cl)c(Cl)c2)[nH][nH]1	-0.8%
Cc1cc(C)c2c(n1)nn1c(N3CCN(c4cccc(Cl)c4)CC3)cc(C)nc21	3.16µM*
O=C(NCc1ccco1)c1cccc2c1C(=O)N(C1CCCCC1)C2	-0.6%

Structure	HSD17B inhib
COc1ccc(CN2C(=O)c3cccnc3C2Nc2cc(Cl)c(OC)cc2OC)cc1 (stereo not drawn)	?
C[C@@H]1/C=C\CC(=O)OC[C@H](C)C(=O)N2CCC[C@@H]2C(=O)OC1	3.2%[11.4 µM]
CCN1CCCC1CN(Cc1cc2cc(C)cc(C)c2[nH]c1=O)C(=O)Nc1ccccc1OC (stereo not drawn)	-24.7%
CCCN(CCC(=O)Nc1ccccc1F)CC1CC1	4.8%
C=CCn1c(SCn2nnc3ccccc3c2=O)nnc1C1CCCCC1	1.6%
Cc1ccc(N(C(=O)c2ccc(S(=O)(=O)N3CCOCC3)cc2)C2C=CS(=O)(=O)C2)cc1 (stereo not drawn)	-1.8%
Cn1nc(-c2ccccc2F)c2cc(C(=O)N3CCN(C(=O)c4ccco4)CC3)sc21	-4.6%
COC(=O)c1ccc2c(=O)n3c(nc2c1)SCC(c1ccccc1)=N3	-6.9%
CC1(C)NC(=O)N(CCCCOc2ccc3c(c2)CCC3)C1=O	2.3%
Cc1occc1-c1nnc(SCC(=O)NCc2ccco2)n1CC(C)C	-22.0%

Structure	HSD17B inhib
CC(=O)Nc1cc2c(cc1C(=O)c1ccc(C)cc1)OCCO2	-17.0%
O=C(O)COc1cccc2nsnc12	?
CCCNC(=O)OC[C@@H]1O[C@H](CCO/N=C(\C)CCN2CCc3nc(CC)c(CC)cc3C2)C=C[C@@H]1Oc1ccc(OC)cc1	3.1%[11.4 µM]
N#CCCNCC1(c2ccccc2)CCCC1	15.2%
Cc1ccc(C2/C(=C(\O)c3c(C)nc4ccccn34)C(=O)C(=O)N2CCCN(C)C)o1 (stereo not drawn)	9.2%
COc1ccc(-n2nnnc2SCC(=O)N2C(C)CCCC2C)c(OC)c1 (stereo not drawn)	4.4%
O=C(NC1CCCCC1)C(c1ccco1)N(Cc1ccco1)C(=O)c1ccco1 (stereo not drawn)	-17.2%
Cc1cc(C)nc(N2CCC(C(=O)NCCc3ccccc3)CC2)n1	-23.6%
Cc1cc(C)c2nc(SCC#N)cc(C)c2c1	-3.6%
Cc1ccc(C)c2[nH]c(=O)c(CCNC(=O)CC(C)(C)C)cc12	?

Structure	HSD17B inhib
Cc1noc(C)c1COC(=O)CCCc1c[nH]c2ccccc12	-24.3%
CC(C)c1ccc(NS(=O)(=O)c2ccc3[nH]cc(C(=O)N4CCC(C(N)=O)CC4)c(=O)c3c2)cc1	?
Cc1ccsc1CN1CCN(c2ccccn2)CC1	0.3%
COc1ccc2[nH]c(=O)c(CN(C)C(=O)C3CCCCC3)cc2c1	15.8µM*
CN(Cc1ccccc1)S(=O)(=O)c1ccc(S(=O)(=O)N2CCN(CCC#N)CC2)cc1	-2.9%
O=C(Oc1nsnc1N1CCOCC1)N1CCOCC1	-3.0%
OC/C(Br)=C(\Br)CO	7.1%
C[C@H]1CC[C@H]2C(=O)N[C@H](Cc3ccccc3)C(=O)N2[C@@H]1c1ccccc1	-0.5%[11.4 µM]
O=C1c2ccccc2C(=O)N1Cc1ccc2c(c1)OCO2	9.3%
CC1(C)Cc2c(c(-c3ccccc3)[nH]c(=O)c2C#N)CO1	-11.1%

Structure	HSD17B inhib
CCNc1c(N)c(=O)oc2ccccc12	?
COc1cc2c(C#N)c(N3CCCCC3)nc(N)c2c(N)n1	25.1µM*
Cc1cc(C)n(-c2nc(C)nc3sc4c(c23)CCC(C)C4)n1 (stereo not drawn)	31.6µM*
O=C(O)c1cccc(N2C(=O)CCC2=O)c1	?
Nc1ccn([C@@H]2O[C@H](COC(=O)C34CC5CC(CC(C5)C3)C4)[C@@H](O)[C@@H]2O)c(=O)n1	12.3%[11.4 µM]
Cc1occc1-c1nnc(SCC(=O)N2CCCc3ccccc32)n1Cc1ccco1	-12.3%
O=C(Nc1ccc(F)cc1)N1CCOCC1	-3.9%
COc1ccccc1N1CCN(C(=O)c2ccccc2Oc2ccccc2)CC1	-11.9%
Cn1cc(S(=O)(=O)N2CCN(C(=O)c3ccco3)CC2)c(=O)n(C)c1=O	7.8%
CN(Cc1ccco1)c1nc(-c2cccnc2)nc2ccccc12	-22.0%

Structure	HSD17B inhib
CC(C)(C)Nc1c(N)c(=O)oc2ccccc12	0.0%
Cc1ccc(C(=O)Nc2ncc(Cc3ccc(F)cc3)s2)o1	-13.1%
Cc1n[nH]c(C)c1S(=O)(=O)N1CCN(c2ccccn2)CC1	25.1µM*
COC(=O)c1c(NC(=O)c2nc3ccccc3s2)sc2c1CCN(C(C)=O)C2	2.6%
NC(=O)c1ccccc1N/C=C/C(=O)c1ccco1	20µM*
Cc1ccc(N(O)C(=O)OCCNC(=O)Nc2ccccc2)cc1	-1.4%
CCCCCCc1nnc(NC(=O)OCC)s1	-1.5%
O=C(c1ccco1)N1CCN(c2ccc(Cl)cc2)CC1	-11.9%
COc1ccc(NCCNc2ccc(OC)cc2)cc1	-6.8%
CCn1c(SCC(=O)Nc2nc(C)cs2)nnc1-c1ccco1	-9.1%

Structure	HSD17B inhib
O=C(c1ccccc1)c1ccncc1	5.3%
Cc1c(Cl)cccc1NC(=O)CCN1CCCC(C)C1 (stereo not drawn)	10.9%
O=c1[nH]c2ccc(S(=O)(=O)N3CCN(c4ccccc4F)CC3)cc2s1	5.2%
Nc1ccc(-c2ccc3ccccc3n2)cc1	25.1µM*
CCOc1ccc(N2Cc3ncccc3C2=O)cc1	2.6%
O=C(CSc1ccc2nnc(-c3ccccn3)n2n1)N1CCN(c2ccccc2)CC1	9.2%
Cn1cccc1C(=O)NC(=O)COC(=O)Cc1coc2ccc3ccccc3c12	31.6µM*
CCOc1cccc(N2C(=O)CC(NCc3ccc(S(N)(=O)=O)cc3)C2=O)c1 (stereo not drawn)	2.7%
Cc1noc(C)c1COC(=O)Cc1ccc(Cl)c(Cl)c1	0.4%
C=CCNS(=O)(=O)c1ccc(OC)c(C)c1	-4.5%

Structure	HSD17B inhib
O=C1C2C(C(=O)N1Cc1ccco1)C1C=CC2C12CC2 (stereo not drawn)	5.1%
Cc1cccc(NCc2ccccc2O)c1C	?
CC1CCCN(CC(O)COc2ccc(Cl)cc2)C1 (stereo not drawn)	5.5%
COC(=O)NC(CC(C)=O)c1ccc2c(c1)OCO2 (stereo not drawn)	7.1%[11.4 µM]
Cc1ccc(Cn2c(SCc3cccnc3)nc3c2c(=O)n(C)c(=O)n3C)cc1	1.5%
Cc1cc(NCCN(C)C)n2nc(-c3cccs3)cc2n1	31.6µM*
Cc1ccc(S(=O)(=O)O)c(C)c1N1CCCC1=O	4.7%
CCc1ccccc1N1CSC2=C(C#N)C(c3ccccc3F)CC(=O)N2C1 (stereo not drawn)	6.31µM*
C=CCNc1nc(N)c(C(=O)Nc2cc(C)on2)s1	0.7%
CN(C)c1ccc(/C(=N\O)c2ccccc2)cc1	-11.3%

Structure	HSD17B inhib
Cc1ccc(-c2nn3c(C)nnc3s2)cc1NC(=O)c1cccnc1	9.1%
COc1ccccc1-c1cc(C(=O)Nc2cc(C)n(Cc3ccc(Cl)cc3)n2)no1	60.9%[activator]
CNC(=O)/C(=N\O)c1ccccc1	5.3%
CC1(C)SC2C(NC(=O)COc3ccccc3)C(=O)N2C1C(=O)O (stereo not drawn)	2.7%
Cc1cc(C(N)=O)c2cc(Br)ccc2n1	4.6%
O=C(NCc1ccco1)C1CCN(S(=O)(=O)N2CCC3(CC2)OCCO3)CC1	-1.9%
CCOC(=O)CCc1nc2ccccc2[nH]1	-0.5%
CCOC(=O)N1CCC(NCCNC(=O)c2ccc(Cl)cc2)CC1	-2.6%
COC(=O)NC(c1ccco1)[C@]1(C(C)=O)CCCC1=O (stereo partly drawn)	-1.0%[11.4 µM]
OC[C@@H]1NC[C@@H](O)[C@H]1O	-7.2%

Among those listed so far, these contain bromine:
Structure	HSD17B inhib
OC/C(Br)=C(\Br)CO	7.1%
Cc1cc(C(N)=O)c2cc(Br)ccc2n1	4.6%

The list goes on:
Structure	HSD17B inhib
COc1ccc(N2C(=O)C3C4C=CC(C4)C3C2=O)nn1 (stereo not drawn)	1.2%
CCc1cc2c(=O)c(-c3nc4ccccc4n3C)c(C(C)C)oc2c(CN2CCN(C)CC2)c1O	25.1µM*
CCCc1cc(C(=O)Nc2sc(C(C)=O)c(C)c2C(=O)OCC)no1	-8.2%
Cc1nc2c(O)cccc2c(=O)[nH]1	6.7%
CCCCOC(=O)Nc1nnc(COc2ccccc2)s1	6.5%
COC(=O)C1=C(N)OC2=C(C(=O)CC(C)(C)C2)C1c1ccoc1 (stereo not drawn)	0.7%
C(=N\c1nccs1)/c1c[nH]c2ccccc12	-5.3%
c1csc(Cc2nc3ccccc3[nH]2)c1	3.0%
CCN1CCCC1CNC(=O)Cn1cnc2ccc(S(=O)(=O)N3CCC(C)CC3)cc2c1=O (stereo not drawn)	0.5%
COC(=O)[C@@]1(C)CCC[C@@]2(C)c3ccc(O)c(C(C)C)c3CCC21 (stereo partly drawn)	-1.0%

Structure	HSD17B inhib
COc1cc2nc(CN3CCN(c4ncc(C(F)(F)F)cc4Cl)CC3)[nH]c(=O)c2cc1OC	13.0%
COc1cccc(N2CC(C(=O)Nc3c(C)cccc3C)CC2=O)c1 (stereo not drawn)	-4.9%
S=P(N1CC1)(N1CC1)N1CC1	-5.1%
Cc1ccc(-c2nnn(CC(=O)N3CCN(c4nc5ccccc5s4)CC3)n2)cc1	14.7%
c1ccc(-c2ccccc2-n2cnnn2)cc1	1.0%
N#C/C=C1\Sc2ccccc2C(=O)N1CC(=O)N1CCN(S(=O)(=O)c2ccccc2)CC1	?
Cc1ccc(S(=O)(=O)NCc2ccccc2)cc1	10.2%
COC(=O)c1ccc(C23CC4(C2)[C@H](CN(C)[C@@H]4c2ccccc2)C3c2ccc(Cl)nc2)cc1 (stereo partly drawn)	?
COc1ccc(CN(C)CCc2ccccn2)cc1OC	16.8%
CN(C)c1ccc(NC(=O)c2cccc(N3C(=O)CCC3=O)c2)cc1	-4.0%

Structure	HSD17B inhib
CC(C)(C)c1ccc2c(c1)N(CC(=O)O)C(=O)CO2	9.7%
Cc1ccc2c(c1)N(CCC(=O)NC1CC1)C(=O)C(C)O2 (stereo not drawn)	-2.3%
CCCCC(c1nnnn1Cc1ccco1)N1CCN(c2nc3ccccc3s2)CC1 (stereo not drawn)	-26.4%
CN1C(=O)N(S(=O)(=O)c2ccc(F)c(F)c2F)C(=O)C1(C)C	-7.6%
